Screening results deposited in PubChem by several laboratories.
MT1-MMP act inh – blockers of MT1-MMP proenzyme processing, primary screen, HT1080 RFP-PRO-GFP cells, GFP/RFP fluorescence. Matrix metalloproteinase-14 (Homo sapiens), P50281. GFP/RFP ratio fluorescence, overnight; percent of plate control window, DMSO zero. GFP/RFP ratio change, % at 20 µM. 360,000 tested, 0.061% active. AID 651647, 2012;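 active means GFP/RFP ratio change of at least 30% with cell ATP level not reduced by more than half and red fluorescence within 50% of control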; further: strong numbers were not always called active
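Material: RFP-PRO-GFP reporter HT1080 cells. Dosing: single-point 20 µM compound, 1% DMSO. Controls: DMSO and RFP-L50D-GFP cell wells. Timing: cells overnight before dosing, compound overnight, 37 °C, 5% CO2. Measure: GFP/RFP fluorescence ratio.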
HIV Env fusion – inhibitors of HIV-1 Env-driven cell-cell fusion, primary screen, HeLa-JRFL effector, CEM21 target cells, luciferase | inhibition, % at 12.3 µM | 360,000 tested, 1.1% active | AID 651610, 2012;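 active means mean replicate inhibition score of at least 50 and every replicate individually at or above 50; inconclusive means only one of the two criteria met; inactive means mean below 50 and not all replicates reaching 50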;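 further: 0% = plate neutral controls and 100% = maraviroc near 300 nM; one replicate is shown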
UUG fidelity – modulators of yeast start codon fidelity, primary screen, whole organism, S. cerevisiae, single point, plate reader. S. cerevisiae UUG-firefly luciferase reporter, luminescence/redox ratio. activity score, % at 18.7 µM. 350,000 tested, 0.13% active. AID 602363, 2012;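 active means replicate mean at a twofold rise or more, about +100% in these data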;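 further: firefly luciferase made from a UUG start codon reports start codon fidelity; reporter light over untreated wells divided by growth signal over untreated wells; some hits fall short of that in this replicate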
CSC inhib – cancer stem cell viability inhibitors, primary screen, luminescence; cancer stem cell-like cells viability; inhibition, % at 7.5 µM; 300,000 tested, 1.1% active;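 active means mean at 75% or more and at least half the replicates too; inconclusive means mean and replicates disagree; tested in HMLE shEcad cells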;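 further: 0% = median of negative and 100% = median of positive control wells; the first replicate is given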
eIF4H FP inh – human eIF4H binding inhibitors, primary screen, translation initiation inhibitor project, biochemical, uHTS, fluorescence polarization; Eukaryotic translation initiation factor 4H (Homo sapiens), Q15056; eIF4H fluorescence polarization binding assay; inhibition, % at 35 µM; 290,000 tested, 0.94% active; AID 2012, 2009;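 active means 50% or more with normal probe brightness, or confirmed in later tests; inconclusive means above 50% with abnormal brightness, or retests that disagree; inactive means below 50% or failed in later tests; about a fifth of its hits are not listed in these tables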;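 further: calls also rest on retests at 20 µM and on dose response follow-up; 0% = protein and probe with vehicle and 100% = probe without protein; strong numbers were not always called active; many hits fall short of the cut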
PABP FP inh – PABP poly(A) RNA binding inhibitors, primary screen, biochemical, fluorescence polarization, uHTS; Polyadenylate-binding protein 1 (Homo sapiens), P11940; inhibition, % at 35 µM; 290,000 tested, 1% active;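 active means 50% or more with normal probe brightness, or confirmed in later tests; inconclusive means above 50% with abnormal brightness, or retests that disagree; inactive means below 50% or failed in later tests; about a fifth of its hits are not listed in these tables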;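 further: calls also rest on retests at 20 µM and on dose response follow-up; controls were probe without protein and protein plus probe with vehicle; some compounds called inactive have numbers as strong as hits; many hits fall short of the cut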
Target sequence (P11940 whole entry, looked up): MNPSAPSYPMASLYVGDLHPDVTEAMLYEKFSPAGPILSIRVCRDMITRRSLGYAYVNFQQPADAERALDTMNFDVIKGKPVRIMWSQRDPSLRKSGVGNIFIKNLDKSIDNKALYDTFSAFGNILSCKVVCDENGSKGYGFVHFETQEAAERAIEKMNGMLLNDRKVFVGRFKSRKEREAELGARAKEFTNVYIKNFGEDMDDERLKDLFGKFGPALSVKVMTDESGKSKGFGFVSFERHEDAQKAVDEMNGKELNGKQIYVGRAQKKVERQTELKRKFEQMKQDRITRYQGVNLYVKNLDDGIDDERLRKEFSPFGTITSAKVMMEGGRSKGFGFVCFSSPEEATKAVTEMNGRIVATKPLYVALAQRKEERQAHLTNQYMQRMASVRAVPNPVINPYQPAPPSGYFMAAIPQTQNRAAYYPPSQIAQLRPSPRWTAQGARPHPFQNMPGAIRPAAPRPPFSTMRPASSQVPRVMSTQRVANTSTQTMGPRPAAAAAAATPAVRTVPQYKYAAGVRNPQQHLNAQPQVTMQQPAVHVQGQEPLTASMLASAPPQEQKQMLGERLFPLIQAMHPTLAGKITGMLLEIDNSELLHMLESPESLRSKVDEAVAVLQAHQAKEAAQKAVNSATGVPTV
Rce1 inhib – yeast Rce1p protease inhibitors, primary screen, biochemical, fluorescence, cell-free homogeneous; CAAX prenyl protease 2 (Saccharomyces cerevisiae (strain ATCC 204508 / S288c)), Q03530; calls only; yeast membranes, quenched prenylated peptide cleavage fluorescence; 290,000 tested, 0.27% active;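 active means fall in fluorescence gain of 50% or more versus controls, with final raw signal at or below 3038400; inconclusive means same 50% fall but final raw signal above 3038400; inactive means fall in fluorescence gain under 50%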;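 further: plate controls were neutral control wells for no effect and wells lacking membranes for full effect; tested at 10 µM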
Target sequence (Q03530 whole entry, looked up): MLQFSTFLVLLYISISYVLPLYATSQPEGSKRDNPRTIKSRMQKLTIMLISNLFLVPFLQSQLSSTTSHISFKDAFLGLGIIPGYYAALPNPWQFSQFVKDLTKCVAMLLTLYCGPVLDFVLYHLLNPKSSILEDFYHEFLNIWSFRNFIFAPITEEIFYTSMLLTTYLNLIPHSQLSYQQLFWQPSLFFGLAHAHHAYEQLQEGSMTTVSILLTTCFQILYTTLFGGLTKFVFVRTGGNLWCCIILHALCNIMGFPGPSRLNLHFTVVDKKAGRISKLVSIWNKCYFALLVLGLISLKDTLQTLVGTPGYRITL
eIF4H FP inh retest – further read-out of eIF4H FP inh, marked with its call; inhibition, %; compound at 20 µM; confirmation average;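 mean of two retest wells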
PABP FP inh retest – second read-out of PABP FP inh, no call of its own (marks repeat the call); inhibition, %; compound at 20 µM; confirmation repeats;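 mean of two retest wells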
MT1-MMP act inh RFP – second read-out of MT1-MMP act inh, no call of its own (marks repeat the call); RFP signal change, %; measured here: RFP expression control read;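 0 = vehicle wells; hits needed this value within 50% of zero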
Numbers without * were called inactive; i = inactive; ? = inconclusive; / = not tested or not shown; + = active, no number. Only part of the results is shown; rates above refer to the full screens.

SMILES	MT1-MMP act inh	MT1-MMP act inh RFP	HIV Env fusion	UUG fidelity	CSC inhib	eIF4H FP inh	PABP FP inh	Rce1 inhib	others
O=C(CN1CCN(C(c2ccccc2)c2ccccc2)CC1)NCc1ccccc1	0	-3	-5	-7	11	-4	12	i
CC(C)(C)c1ccc(OCC(=O)O/N=C(\N)c2ccncc2)cc1	-1	-14	-21	-10	16	-4	2	i
O=C1CCCc2c1[nH]c1ccc(Cl)cc21	5	-8	83*	-12	-12	-5	-8	i
Cn1c(N)c(C(=O)COC(=O)/C=C/c2ccc(Cl)cc2Cl)c(=O)n(C)c1=O	3	-19	15	-11	14	/	/	/
O=S(=O)(NCC1CCCN(Cc2ccccc2)C1)c1cccc2cccnc12 (stereo not drawn)	-3	7	12	-7	-4	-2	4	i
O=C(CSc1nnc(-c2ccco2)o1)N1CCOCC1	/	/	/	-7	-4	-4	-12	i
Cc1cccc(OCCCN2CCOCC2)c1	-1	2	-8	-9	-5	-8	-2	i
Cc1cc(N2C(=O)C(=O)/C(=C(/O)c3ccccc3)C2c2cccs2)no1 (stereo not drawn)	0	-5	12	-15	-17	-15	21	i
Cc1ccc2c(c1)-c1c(cnn1CC(=O)N1CCCN(Cc3ccccc3F)C1)CO2	-5	-5	-1	6	-22	-10	-20	i
Cc1cccc(C(=O)Nc2ccc(S(=O)(=O)N3CCOCC3)cc2C)c1	1	-2	-3	-17	-6	/	/	i
O=C(Nc1nc2c(Cl)c(Cl)ccc2s1)C1CC1	-3	-7	0	-11	0	7	-6	i
Cc1ccc(NC(=O)Cn2cc(C(=O)C3CC3)c3ccccc32)cc1	3	0	0	/	-8	-5	2	i
Cn1cc(C(=O)c2cccc(Cl)c2)cc1/C=N\O	-2	-1	0	/	2	-3	-13	i
Cc1ccc(C(=O)Nc2cccc([N+](=O)[O-])c2)cc1S(=O)(=O)Nc1ccc(NC(=O)c2ccccc2)cc1	-1	-13	24	/	23	-4	0	i
Fc1ccccc1NC(=S)Nc1ccc(Br)cc1	2	-6	0	/	-10	-9	-8	i
CCN(CCCNC(=O)c1[nH]c(C)c(C(C)=O)c1C)c1cccc(C)c1	-15	-3	/	-10	2	-7	4	i
O=C(Nc1ccc(F)cc1)N1CCc2ccccc2C1	7	3	12	/	13	-1	5	i
CSCC(=O)N1CCCC(CNC(=O)c2ccccc2Cl)C1 (stereo not drawn)	4	0	-17	/	-9	-5	-2	i
CC(C)(C)OC(=O)NCCCC[C@H](NC(=O)c1[nH]cnc1C(=O)Nc1ccccc1)C(=O)OC(C)(C)C	1	-18	26	93	/	7	-2	i
CC(=O)Nc1ccc(NC(=O)c2sc3nc4n(c(=O)c3c2C)CCCCC4)cc1	3	0	20	/	-2	-8	-8	i

Reprinted at random: two entries already listed, in no set order.
SMILES	MT1-MMP act inh	MT1-MMP act inh RFP	HIV Env fusion	UUG fidelity	CSC inhib	eIF4H FP inh	PABP FP inh	Rce1 inhib	others
Cn1cc(C(=O)c2cccc(Cl)c2)cc1/C=N\O	-2	-1	0	/	2	-3	-13	i
Cc1cccc(OCCCN2CCOCC2)c1	-1	2	-8	-9	-5	-8	-2	i

The list goes on:
SMILES	MT1-MMP act inh	MT1-MMP act inh RFP	HIV Env fusion	UUG fidelity	CSC inhib	eIF4H FP inh	PABP FP inh	Rce1 inhib	others
Cc1ccc(S(=O)(=O)NCCNC(=O)N2CCOCC2)cc1	4	0	-9	-14	-1	-7	-14	i
O=C(OCc1ccc(Br)cc1)c1cccc(-c2nnc(-c3ccccc3)o2)c1	-1	-6	-37	/	-1	-4	-17	i
COc1cc(C(O)c2nc(-c3cccc(F)c3)cs2)ccc1F (stereo not drawn)	13	-7	-37	23	/	/	/	/
Cc1cc(C)nc(SCc2cn3c(C)cc(C)nc3n2)n1	1	3	-3	-25	-5	6	-7	+
O=C(Nc1nc2ccsc2c(=O)s1)C1CCC1	-1	-2	-29	-20	6	37	0	i
Cc1ccc(C(=O)COc2ccc3c(C)cc(=O)oc3c2)cc1	3	4	-19	-22	-5	-6	5	i
Cc1ccc(CNn2cn[nH]c2=S)cc1	1	4	-10	-23	-7	/	/	/
Cc1cccc(NC(=O)C(=O)NCC2CCCO2)c1 (stereo not drawn)	3	4	-17	-15	/	-11	-1	i
O=C(CSc1ccc(Cl)cc1)Nc1cccc(NC(=O)c2ccco2)c1	2	-6	/	15	-19	0	-4	i
O=C(O)c1c[nH]c2nccnc12	0	1	-9	-11	/	/	/	/
O=C(O)c1cccc(S(=O)(=O)N2CCOCC2)c1	0	0	/	-4	2	-1	5	i
CCn1c(CNC(=O)c2ccc(F)cc2)cc2ccccc21	0	-6	-5	-28	-17	-8	-8	i
c1cc(-n2nnc3cnccc32)ccn1	0	4	-15	-18	-17	8	3	i
NC(=O)Nc1ccc(C(=O)OCC(=O)Nc2ccc([N+](=O)[O-])cc2C(F)(F)F)cc1	1	3	33	/	-3	0	-2	i
CCCc1nnc(SCC(=O)O)n1CC	2	4	-52	-16	-11	-4	-9	i
CCOC(=O)c1ccc(NC(=S)NCc2ccc(F)cc2)cc1	1	-2	-44	/	-11	/	/	i
COCc1nnc(NC(=O)c2cc(OC)c(OC)cc2[N+](=O)[O-])s1	-3	-3	/	/	8	-4	-4	i
Cc1ccc(Cl)cc1NC(=O)NCCN1CCCCC1	4	4	-50	-20	-9	-9	-2	i
COc1ccc(-c2csc(N=C(N)N)n2)cc1	-1	0	-40	/	6	0	1	i
COC(=O)c1ccc(CNC(=O)COC(=O)C2CC3C=CC2C3)cc1 (stereo not drawn)	-2	2	7	/	/	8	1	i
COc1ccc(NC(=O)CNc2cc(S(=O)(=O)N3CCOCC3)ccc2N2CCOCC2)c(OC)c1	-5	-1	/	-10	6	/	/	/
CC(C)Oc1ccc(C2CC(=O)N(C)C2=O)cc1 (stereo not drawn)	-1	0	-13	-20	-2	-13	8	i
CNc1ccccc1C(=O)OCC(=O)c1ccc(F)cc1	0	4	-5	/	/	4	-11	i
COc1cc(OC)cc(C(=O)NNS(=O)(=O)c2ccc(F)cc2)c1	-1	-7	22	-10	-6	-7	0	i
Cc1ccc(S(=O)(=O)c2nc(S(C)(=O)=O)sc2N2CCC(C(N)=O)CC2)cc1	0	4	-4	-5	-12	-2	0	i
COc1ccc(NC(=O)CSc2ccc(NC(C)=O)cc2)cc1S(=O)(=O)N1CCCCC1	6	-2	-13	/	-1	-4	4	i
Cc1ccc(S(=O)(=O)CCC(=O)N2CCc3ccccc32)cc1	0	6	/	/	-13	2	2	i
Cc1ccc(/C=C/C(=O)c2ccccc(=O)c2O)c(C)c1	-6	-2	15	0	2	81	-2	i	eIF4H FP inh retest=-3;PABP FP inh retest=10
COc1ccccc1CCNC(=O)CCn1c(=O)oc2ccccc21	1	3	-27	-10	5	-14	0	i
CC(C)c1ccc(/C=C/C(=O)NNC(=O)c2cccnc2)cc1	3	-2	/	-12	/	-2	-1	/
Cc1ccc(N2CN=c3s/c(=C\c4ccccn4)c(=O)n3C2)cc1	2	2	-50	6	-9	-10	2	i
O=S(=O)(c1ccccc1)[C@@]1(c2ccc(Br)cc2)C[C@@H]2ON=C(c3cccc(Br)c3)[C@@H]2C1	-1	-9	-1	-16	-7	/	/	i
CC(=O)Nc1ccc2nc(SCC(=O)O)sc2c1	2	4	/	-3	-3	4	11	i
CC(C)n1ncc2c(C(=O)Nc3cccc(C#N)c3)cc(C3CC3)nc21	-13	-30	6	-15	8	/	/	/
CC1(C)C2CCC1(CS(=O)(=O)N1CCN(c3ccccc3F)CC1)C(=O)C2 (stereo not drawn)	5	10	6	-7	-18	-18	-3	i
COc1ccc(Br)cc1CN1CCC(N2CCCC2)CC1	3	7	-3	-8	36	9	12	i
O=C(NCCC1CCCCN1S(=O)(=O)c1ccccc1)C(=O)NCc1ccco1 (stereo not drawn)	-2	0	7	-31	7	/	/	i
COC(=O)c1sc(N2C(=O)C(=O)/C(=C(/O)c3ccccc3)C2c2ccco2)nc1C (stereo not drawn)	3	6	15	/	-4	33	4	i
CN(CC(=O)Nc1cccc(F)c1)C(=O)c1cccc(S(=O)(=O)N2CC3(C)CC2CC(C)(C)C3)c1 (stereo not drawn)	-1	-3	26	7	-9	/	/	i
COc1ccc(NC(=O)c2cc3ccccc3o/c2=N\NS(=O)(=O)c2ccc(C)cc2)cc1	0	2	-31	4	-16	-2	1	i
COc1cccc(OC)c1C(=O)NC(=O)Oc1c(F)cccc1F	-1	3	-20	-16	-22	-2	-3	i
C#CCOCCOCCOCCNc1nc(N2CCOCC2)nc(N2CCN(C(=O)Cn3cc(CC(C)O)nn3)CC2)n1 (stereo not drawn)	-2	1	-1	-3	8	-3	-7	i
Cc1c(C(=O)N2CCCCCC2)c(S(=O)(=O)NCc2ccccc2Cl)c(C)n1C	0	3	7	9	-7	2	6	i
Cc1ccc(CCNC(=O)CNC(=O)c2cccs2)cc1	0	3	-2	/	-2	2	-7	i
CCCc1cnc(Nc2nc(C(N)Cc3ccc(C(F)(F)F)cc3)cs2)nc1 (stereo not drawn)	-6	-8	?	-39	/	/	/	/
Cc1cc(C)nc(N2CCCC(C(=O)Nc3ccc(F)cc3)C2)n1 (stereo not drawn)	-1	0	11	-6	12	2	5	i

Molecules above that contain an aryl methoxy group:
SMILES	MT1-MMP act inh	MT1-MMP act inh RFP	HIV Env fusion	UUG fidelity	CSC inhib	eIF4H FP inh	PABP FP inh	Rce1 inhib	others
COc1cc(C(O)c2nc(-c3cccc(F)c3)cs2)ccc1F (stereo not drawn)	13	-7	-37	23	/	/	/	/
COCc1nnc(NC(=O)c2cc(OC)c(OC)cc2[N+](=O)[O-])s1	-3	-3	/	/	8	-4	-4	i
COc1ccc(-c2csc(N=C(N)N)n2)cc1	-1	0	-40	/	6	0	1	i
COc1ccc(NC(=O)CNc2cc(S(=O)(=O)N3CCOCC3)ccc2N2CCOCC2)c(OC)c1	-5	-1	/	-10	6	/	/	/
COc1cc(OC)cc(C(=O)NNS(=O)(=O)c2ccc(F)cc2)c1	-1	-7	22	-10	-6	-7	0	i
COc1ccc(NC(=O)CSc2ccc(NC(C)=O)cc2)cc1S(=O)(=O)N1CCCCC1	6	-2	-13	/	-1	-4	4	i
COc1ccccc1CCNC(=O)CCn1c(=O)oc2ccccc21	1	3	-27	-10	5	-14	0	i
COc1ccc(Br)cc1CN1CCC(N2CCCC2)CC1	3	7	-3	-8	36	9	12	i
COc1ccc(NC(=O)c2cc3ccccc3o/c2=N\NS(=O)(=O)c2ccc(C)cc2)cc1	0	2	-31	4	-16	-2	1	i
COc1cccc(OC)c1C(=O)NC(=O)Oc1c(F)cccc1F	-1	3	-20	-16	-22	-2	-3	i
